High-throughput results as filed in PubChem BioAssay.
RecA intein inh = Mtb RecA intein splicing inhibition. P9WHJ3. inhibition, %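 (about 9 µM by stock and volumes)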. cell-free RecA intein splicing, fluorescence. 290,000 compounds, 0.75% hits; in the data active means inhibition above about 30%; inconclusive means no clear call, values can overlap the other calls;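 further: 0% = vehicle wells and 100% = reference inhibitor control wells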
Target sequence (P9WHJ3 whole entry, looked up): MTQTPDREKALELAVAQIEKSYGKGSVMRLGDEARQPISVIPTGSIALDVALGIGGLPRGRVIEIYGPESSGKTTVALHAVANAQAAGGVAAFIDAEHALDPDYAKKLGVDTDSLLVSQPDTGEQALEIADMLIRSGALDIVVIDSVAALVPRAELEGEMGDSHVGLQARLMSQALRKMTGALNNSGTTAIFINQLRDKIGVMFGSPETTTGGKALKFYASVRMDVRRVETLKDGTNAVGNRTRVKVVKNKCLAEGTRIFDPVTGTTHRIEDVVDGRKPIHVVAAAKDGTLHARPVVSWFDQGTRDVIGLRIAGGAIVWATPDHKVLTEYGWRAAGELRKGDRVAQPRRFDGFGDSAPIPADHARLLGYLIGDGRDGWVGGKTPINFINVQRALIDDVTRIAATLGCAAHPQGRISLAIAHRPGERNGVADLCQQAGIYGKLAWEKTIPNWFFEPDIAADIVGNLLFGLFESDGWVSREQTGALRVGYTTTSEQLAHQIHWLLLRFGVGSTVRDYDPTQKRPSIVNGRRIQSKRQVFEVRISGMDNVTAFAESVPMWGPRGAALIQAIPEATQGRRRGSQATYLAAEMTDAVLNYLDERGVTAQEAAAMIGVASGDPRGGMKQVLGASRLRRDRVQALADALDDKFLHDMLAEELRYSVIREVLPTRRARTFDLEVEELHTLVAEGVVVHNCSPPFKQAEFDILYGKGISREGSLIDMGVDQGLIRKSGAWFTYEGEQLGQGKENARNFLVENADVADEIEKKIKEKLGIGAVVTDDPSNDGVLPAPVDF
Arbovirus anti = arbovirus infection inhibition | arbovirus infection cell-based antiviral screen | inhibition, % at 10 µM | 200,000 compounds, 0.37% hits;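 active means inhibition from about 30%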;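 further: bluetongue infection of BSR cells; cell survival read as ATP light after 72 h; 0% = infected wells without compound and 100% = uninfected wells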
Mtb growth = M. tuberculosis H37Rv growth inhibitors, H37Rv strain (AID 1626) | inhibition, % at 10 µM, or IC50 in µM where a hit was titrated | M. tuberculosis H37Rv growth inhibition; higher % means a stronger effect | 220,000 compounds, 0.95% hits;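 active means confirmed in a dose series; inconclusive means inhibition above 80% but not taken into the dose series; inactive means below 80% or under 30% at every dose of the series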;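 further: bacteria incubated seven days before Alamar blue readout; 0% = bacteria only wells and 100% = bacteria with antibiotic wells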
Mtb bLac sens = beta-lactam sensitization of Mtb H37Rv; M. tuberculosis H37Rv growth with meropenem, percent inhibition; hits of this screen are not shown here; inhibition, % at 25 µM; 330,000 compounds, 0.27% hits;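 active means about 74% or more and at least 40 points above the plate without the antibiotic, then above 30% in a dose series; inconclusive means first-round hits that could not be retested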;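 further: growth measured after seven days incubation then overnight dye step; 0% = bacteria only wells and 100% = bacteria with antibiotic; twin plates without the antibiotic show which effects depend on it; some results filed as inactive read as strong as hits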
YopH inh = YopH (Yersinia) phosphatase inhibition; fluorescence Ex485/Em525; inhibition, %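 (about 10 µM by stock and volumes)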; 140,000 compounds, 0.16% hits; AID 898;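 active means inhibition of 50% or more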;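 further: controls were vehicle for no effect and minimum signal wells for full effect; inactives centre near -20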
Arbovirus anti repeat = second read-out of Arbovirus anti, no call of its own (marks repeat the call); inhibition, %; measured here: 10K subset replicate screen; many hits read low in the repeat;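 first of two repeat runs on a subset; 0% = infected and 100% = uninfected wells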
* = called active by the depositor; ? = inconclusive; nt = not tested or not shown. Some of the compounds tested, so the mix of outcomes need not match the whole.

SMILES	RecA intein inh	Arbovirus anti	Mtb growth	Mtb bLac sens	YopH inh	others
O=c1[nH]ncc(N/N=C\c2cccnc2)c1Cl	2.1	nt	-5%	-1	nt
O=C1N2c3ccccc3CCc3cccc(c32)C1(O)C(F)(F)F (stereo not given)	6.0	5	-10%	5	6
C/C=C/Cn1c(N(C)Cc2ccccc2)nc2c1c(=O)[nH]c(=O)n2C	2.5	1	2%	-5	-32	Arbovirus anti repeat=-1
O=C(c1cccs1)c1coc2ccc(O)cc12	-2.1	13	51%	86	10
Cc1ccc(C(C)NC(=O)c2ccco2)cc1 (stereo not given)	4.3	2	2%	8	6
COc1ccc2[nH]cc(C(O)CN3CCN(c4ccccc4)CC3)c2c1 (stereo not given)	0.4	-6	-5%	nt	-40
CCOc1ccc(-c2nnn(CCC#N)n2)cc1OC	-3.3	-1	3%	0	nt
O=C(CCc1c[nH]c2ccccc12)NCC1COc2ccccc2O1 (stereo not given)	0.9	-3	8%	-1	nt
COCCN1CCN(C(=O)c2cc(COc3cc(C)ccc3C)on2)CC1	0.9	nt	nt	-6	nt
N#CCc1nc(CSc2nc3ccccc3o2)cs1	1.4	2	4%	10	-30

2 records drawn at random from the list so far:
SMILES	RecA intein inh	Arbovirus anti	Mtb growth	Mtb bLac sens	YopH inh	others
CCOc1ccc(-c2nnn(CCC#N)n2)cc1OC	-3.3	-1	3%	0	nt
COCCN1CCN(C(=O)c2cc(COc3cc(C)ccc3C)on2)CC1	0.9	nt	nt	-6	nt

(listing goes on)
SMILES	RecA intein inh	Arbovirus anti	Mtb growth	Mtb bLac sens	YopH inh	others
O=C(CN1CCN(c2ccccc2F)CC1)c1ccc2cc[nH]c2c1	9.4	-2	nt	2	-25	Arbovirus anti repeat=-1
O=C(CNC(=S)NC(=O)c1cccs1)c1ccccc1	2.2	-13	12%	5	-16
CC(C)CN(CC(C)C)S(=O)(=O)N1CCC(C(=O)NCCN2CCOCC2)CC1	-1.4	12	1%	4	-2
COc1cc(NC(=O)c2cc([N+](=O)[O-])ccc2NC(=O)CNC2CCCCC2C)cc(OC)c1 (stereo not given)	-2.4	nt	nt	8	nt
O=C(CO/N=C/c1ccccc1OC(F)F)NC1CCCC1	-0.4	7	10%	0	nt
CCOC(=O)Cc1csc(/N=C/c2c(O)n(-c3ccc(C)c(C)c3)c(=O)c3ccccc23)n1	-35	-6	4%	0	-19
CCOc1cccc2sc(N(CCCN(C)C)C(=O)c3ccc(S(=O)(=O)N4CCc5ccccc5C4)cc3)nc12	1.4	nt	nt	9	nt
Cc1cc(NS(=O)(=O)c2ccc(NC(=O)CSc3nnc(-c4ccco4)n3C)cc2)nc(C)n1	0.3	-12	-3%	-5	-16
CCc1cc2c(NC3CCCC3)ncnc2s1	3.4	9	2%	-12	nt
C=CCn1c(O)c(C(C)=NCc2cc(OC)cc(OC)c2)c(=O)[nH]c1=O	-0.9	7	4%	0	-43
O=C1CCCN1CCCN1C(=O)N[C@@H](Cc2ccccc2)C1=O	-0.2	-6	-3%	11	-34
Cc1cccc(-n2c(O)c(C=Nc3ccccc3-c3n[nH]c(=S)[nH]c3=O)c3ccccc3c2=O)n1	-1.8	nt	-10%	-1	nt
Cc1ccnc2nc(C(=O)OCC(=O)NCCc3ccccc3)nn12	-3.2	10	-3%	7	-31
CC1=NN(C(N)=S)C(=O)C1N=Nc1ccc(O)cc1 (stereo not given)	0.3	-24	8%	nt	nt
O=C(CSc1ccccn1)Nc1nonc1[N+](=O)[O-]	25	nt	nt	101	nt
CN(C)c1cccc(C(=O)N(Cc2ccccc2)Cc2ccccc2)c1	17	nt	nt	3	nt
CCOC(=O)c1cc(NC(=O)/C=C\C(=O)O)ccc1Cl	0.9	11	-1%	-8	nt
COc1ccc(CCNC(=O)c2coc3ccccc3c2=O)cc1	0.0	nt	nt	-6	nt
COc1ccc(CCNc2ncnc3nc[nH]c23)cc1OC	0.9	10	4%	6	-7	Arbovirus anti repeat=5
CCC1(CC)C(=O)C(C)(C)C(=O)OC1c1cccs1 (stereo not given)	1.1	3	-9%	2	-4
CCn1c(SCC(=O)NCCOc2ccccc2)nc2ccccc2c1=O	0.4	9	-2%	-9	-38	Arbovirus anti repeat=3
N#C/C(=C(/O)CN1C(=O)c2ccccc2C1=O)c1nc2ccccc2[nH]1	-2.1	4	-9%	-1	1	Arbovirus anti repeat=4
COc1ccc2oc(=O)cc(-c3cc4cccc(OC)c4o3)c2c1	1.2	nt	nt	10	nt
O=C(CSc1nnc(SCc2ccccc2)s1)N/N=C/c1c[nH]c2ccccc12	11	-20	7%	nt	nt
COc1ccc(-c2csc(NC(=O)CSCc3c(C)noc3C)n2)cc1OC	-0.7	nt	nt	2	nt
COc1ccc(NC(=S)NC(=O)Cc2ccccc2)cc1	-0.5	nt	nt	45	nt
Cc1ccc(N2C(=O)C(Cl)=C(NCCO)C2=O)c(C)c1	33*	22	-6%	13	-22	Arbovirus anti repeat=17
CSCCC(NS(=O)(=O)c1ccccc1)C(=O)OCc1cc(=O)oc2cc(O)ccc12 (stereo not given)	-23	nt	nt	-6	nt
Cn1c(CNc2ccc(Cl)cc2)nnc1SCc1ccccc1	-4.5	6	-7%	2	-38
O=C(c1ccccc1Cl)N1CCN(c2ccccn2)CC1	0.1	-1	nt	-5	13

Taken from the entries so far for reference:
SMILES	RecA intein inh	Arbovirus anti	Mtb growth	Mtb bLac sens	YopH inh	others
Cn1c(CNc2ccc(Cl)cc2)nnc1SCc1ccccc1	-4.5	6	-7%	2	-38
O=C(c1ccccc1Cl)N1CCN(c2ccccn2)CC1	0.1	-1	nt	-5	13

Other structures
SMILES	RecA intein inh	Arbovirus anti	Mtb growth	Mtb bLac sens	YopH inh	others
O=C(Cc1ccsc1)Nc1cc(F)ccc1F	0.9	nt	nt	-1	nt
Cc1cc(C)n2cc(CSc3nnnn3-c3ccccc3C)nc2n1	-2.9	0	-3%	0	-45
Nc1ccc(Cc2nc3cc4ccccc4cc3[nH]2)cc1	0.4	-6	4%	-3	-22
CCOc1ccc(-n2c(=O)c3c4c(sc3n(CC(=O)NCC3CCCO3)c2=O)CCC4)cc1 (stereo not given)	1.5	17	-4%	-3	nt
COc1ccc(N2CCN(C(CNS(=O)(=O)c3cc(F)ccc3F)c3cccnc3)CC2)cc1 (stereo not given)	-5.8	11	nt	15	-15
COc1ccc(OC)c(NC(=S)NCc2ccc(S(N)(=O)=O)cc2)c1	-0.1	5	4%	1	nt
CC1(C)Cc2nc(N3CCCC3)c(C#N)cc2CO1	-2.9	16	6%	0	nt
CCOC(=O)C1=C(CS(=O)(=O)c2ccccc2)NC(=O)NC1c1ccccc1 (stereo not given)	-1.8	-1	3%	5	4
O=C(Cc1ccc(S(=O)(=O)N2CCOCC2)s1)Nc1ccccc1N1CCCC1	-8.7	nt	nt	?	nt
O=C(CN1C(=O)CCSc2ccccc21)Nc1ccc(F)cc1	-1.0	-1	8%	-8	-50
O=C(Cc1ccccc1)N1CCN(Cc2c[nH]c3ccccc23)CC1	-3.7	16	-8%	-3	-17
Cc1ccc(N/C=C(\C2OC(=O)c3ccccc32)[N+](=O)[O-])c(C)c1 (stereo not given)	2.5	8	1%	2	nt
CC(NC(=O)CNC(=O)c1ccco1)c1ccccc1 (stereo not given)	2.5	nt	nt	-3	nt
O=C(C1=NNCC1c1ccc(Cl)cc1)C1CO1 (stereo not given)	22	-31	-1%	nt	-8
S=c1[nH]cnc2scc(-c3ccc(Cl)cc3)c12	2.8	nt	76%	74	nt
CCOC(=O)c1cn(CC)c2c(ccc3ccccc32)c1=O	6.7	nt	nt	66	nt
Cc1cc(C(=O)O)c(S(C)(=O)=O)s1	nt	-1	4%	-1	-34
CC(C)n1nnnc1CN1CCN(C)CC1	2.2	6	-7%	-4	-41
CC(C)(C)c1ccc(OCC(=O)NCc2ccco2)cc1	nt	-3	-12%	-3	-33
C=CCOc1ccc(/C=C/C(=O)OCC(=O)N(C)C2CCS(=O)(=O)C2)cc1 (stereo not given)	1.0	nt	nt	11	nt
CN(c1ncc(C(F)(F)F)cc1Cl)N1C(=O)c2cccc(N)c2C1=O	-7.0	3	2%	-4	nt
O=[N+]([O-])c1cc(C(F)(F)F)ccc1N1CCCNCC1	1.8	-3	-2%	-11	nt
CCN1CCN(c2c(Cl)cccc2NC(=O)c2ccc3nsnc3c2)CC1	-1.4	nt	1%	-7	nt
CC(C)CCN1CCN(Cc2ccc(C(F)(F)F)cc2)CC1CCO (stereo not given)	5.4	-11	-6%	-8	nt
S=c1[nH]c(-c2ccccc2)cs1	nt	5	-1%	78	nt
COc1cc(/C=C(\C#N)C(=O)Nc2cccc3ncccc23)ccc1O	-6.9	2	10%	1	nt
CN(CC(=O)Nc1ccc(Cl)c(C(F)(F)F)c1)C(=O)c1cccnc1Sc1ccccc1	4.9	nt	nt	-3	nt
N/C(=N\c1nc2c(c(=O)[nH]1)CCCC2)Nc1ccc(Oc2ccccc2)cc1	0.3	-1	18%	-7	-5
CN(C(=O)c1ccc(Br)cc1)C1CCS(=O)(=O)C1 (stereo not given)	-1.4	nt	nt	-10	nt
Cc1cc(OC(=O)c2cc(Cl)ccc2Cl)c([N+](=O)[O-])c(=O)[nH]1	-1.7	nt	nt	1	nt
CN1CCC(=NNC(=O)CN(c2cccc([N+](=O)[O-])c2)S(=O)(=O)c2ccccc2)CC1	-1.7	nt	nt	-5	nt
CC(C)c1ccc(/C=C/C(=O)NC2CCCCC2)cc1	-0.5	-8	6%	nt	-36
CC(C)(C)OC(=O)N1CCCC1C(=O)NCCc1ccccc1 (stereo not given)	-0.1	0	-6%	-14	-29
O=S(=O)(NCC(c1cccnc1)N1CCN(Cc2ccccc2)CC1)c1ccc(F)cc1 (stereo not given)	0.1	nt	nt	-15	nt
CN(CC(=O)Nc1ccc(F)cc1)C(=O)COC(=O)c1ccccc1	0.1	nt	nt	-11	nt
Clc1ccc(-c2cc3ccccc3nc2N2CCOCC2)cc1	0.8	-3	8%	3	nt
Cn1c(SCC(=O)O)nnc1-c1ccc2ncccc2c1	-0.7	nt	-3%	-5	nt
COc1ccc(-n2nc3c(c2NC(=O)c2ccc(N4C(=O)CCC4=O)cc2)CSC3)cc1	nt	11	-2%	4	nt

Of the compounds above, 12 have fluorine.
SMILES	RecA intein inh	Arbovirus anti	Mtb growth	Mtb bLac sens	YopH inh	others
O=C1N2c3ccccc3CCc3cccc(c32)C1(O)C(F)(F)F (stereo not given)	6.0	5	-10%	5	6
O=C(CN1CCN(c2ccccc2F)CC1)c1ccc2cc[nH]c2c1	9.4	-2	nt	2	-25	Arbovirus anti repeat=-1
O=C(CO/N=C/c1ccccc1OC(F)F)NC1CCCC1	-0.4	7	10%	0	nt
O=C(Cc1ccsc1)Nc1cc(F)ccc1F	0.9	nt	nt	-1	nt
COc1ccc(N2CCN(C(CNS(=O)(=O)c3cc(F)ccc3F)c3cccnc3)CC2)cc1 (stereo not given)	-5.8	11	nt	15	-15
O=C(CN1C(=O)CCSc2ccccc21)Nc1ccc(F)cc1	-1.0	-1	8%	-8	-50
CN(c1ncc(C(F)(F)F)cc1Cl)N1C(=O)c2cccc(N)c2C1=O	-7.0	3	2%	-4	nt
O=[N+]([O-])c1cc(C(F)(F)F)ccc1N1CCCNCC1	1.8	-3	-2%	-11	nt
CC(C)CCN1CCN(Cc2ccc(C(F)(F)F)cc2)CC1CCO (stereo not given)	5.4	-11	-6%	-8	nt
CN(CC(=O)Nc1ccc(Cl)c(C(F)(F)F)c1)C(=O)c1cccnc1Sc1ccccc1	4.9	nt	nt	-3	nt
O=S(=O)(NCC(c1cccnc1)N1CCN(Cc2ccccc2)CC1)c1ccc(F)cc1 (stereo not given)	0.1	nt	nt	-15	nt
CN(CC(=O)Nc1ccc(F)cc1)C(=O)COC(=O)c1ccccc1	0.1	nt	nt	-11	nt
